# Compound activity (PubChem BioAssay)
# Menin-MLL FL inh = inhibitors of human menin-MLL interaction, wild-type MLL peptide; Fluorescence polarization, fluorescein-MLL peptide displacement from menin; FP activity change, % at 61.4 µM; 290,000 tested, under 10 active; inconclusive = falling polarisation curve, or a change in total fluorescence; inactive = total fluorescence flat and polarisation flat or rising; no compound was filed as active; the % refers to the polarisation; negative = inhibition;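 note: % of control where 0% means no effect; inhibitors lower the polarisation; unlabelled MLL peptide was the positive control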
# TRPML1 inh = human mucolipin-1 channel inhibition. TRPML1-inducible cells, Ca2+ dye fluorescence, FDSS; hits give low values; inhibition of EC80 agonist-evoked calcium signal. activity change, negative = inhibition, % (no concentration beside the values). 390,000 tested, 0.02% active. AID 624415; in the data active means activity change below about -50%; inconclusive means about -30% to -50%; inactive means above about -30%;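 note: stimulus is agonist 54-4 at its EC80 concentration; % is set by controls: 0 for no effect and ±100 for the full control effect; compound concentration not given in the record; the text of the record puts the active cut at -80%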
#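 Calcium fluorescence in TRPML1-DL cells induced overnight with Tet: a 110 s read after compound pin addition, then a 110 s antagonist read after challenge with 54-4 at 4 uM final (EC80).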
# TRPML1 ag = agonists of human TRPML1 channel; Q9GZU1; TRPML1-expressing cells, Ca2+ dye fluorescence, FDSS; host cell line not named in the record; reference of the full effect not given here; activation, % (test concentration not listed); 410,000 tested, 0.12% active; AID 624414; in the data active = activation above about 50%; inconclusive = about 30% to 50%; inactive = below about 30%; note: 0% is about no effect; the text of the record puts the active cut at 80%
#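 TRPML1-DL cells, Tet-induced overnight (~16 h, 37 degrees C), loaded 45-90 min at room temperature with Ca8 no-wash calcium dye plus quencher. FDSS fluorescence: 10 s baseline, compound pin-transfer, 110 s agonist read, then EC80 54-4 (4uM final) and 110 s antagonist read.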
# PINK1 expr mod = modulators of PINK1 expression; PINK1 immunofluorescence, high-content cytometry, 24 h; Potency, µM (highest dose often 76.6 µM), without a hit: at the highest dose activation (PINK1 increase), usual class: activators; 410,000 tested, 0.2% active; active = well fitted activation curve with a large enough effect; inconclusive = small, poorly fitted or top-dose-only effect; inactive = flat fitted curve, though single readings scatter; cell line not stated here;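 note: potency is the fitted concentration of half-maximal effect; % of control where 0% means no effect; nearly all actives have a fitted effect of over 65% in size; a mitochondrial uncoupler was the plate control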
#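 Compound titrations (5 concentrations, 24 h) on a stable cell line; DMSO and CCCP controls. Endpoint: fixed-cell PINK1 immunofluorescence with mitochondrial, cell and nuclear markers, scanned by microplate cytometer.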
# ClpP mod = qHTS Assay for Activators of ClpP | purified B. subtilis ClpP, FRET peptide cleavage, 20 min | ATP-dependent Clp protease proteolytic subunit (Bacillus subtilis (strain 168)), P80244 | Potency, µM (highest dose often 57.5 µM), for inactives: at the top dose activity change, negative = active | 340,000 tested, 1.9% active | AID 651965, 2013; active = well fitted falling curve with a large enough effect; inconclusive = small, poorly fitted or top-dose-only effect; inactive = no such curve, though single readings can be large or run the other way; note: potency is the fitted concentration of half-maximal effect; the source files actives as falling curves though it sought activators and does not explain the sign; nearly all actives have a fitted effect of over 65% in size; many hits overshoot -100%
# Target sequence (P80244 whole entry, looked up): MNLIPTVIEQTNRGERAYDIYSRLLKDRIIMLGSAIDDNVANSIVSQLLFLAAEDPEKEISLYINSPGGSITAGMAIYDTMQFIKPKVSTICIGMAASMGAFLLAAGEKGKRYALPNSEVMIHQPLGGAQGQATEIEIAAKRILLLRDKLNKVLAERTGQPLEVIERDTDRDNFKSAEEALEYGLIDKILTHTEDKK
#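 ClpP 10 microg/mL final, pH 8 Tris/KCl buffer with BSA, glycerol, Tween-20; compound pinned in; FRET-FV substrate; RT 20 min; Ex320/Em430; ΔFRET vs ADEP 5.8 microM, DMSO, no enzyme.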
# Sfp inh = blocks B. subtilis Sfp PPTase activity | Q9F4F7 | Biochemical Sfp PPTase activity, qHTS | Potency, µM, for the others: max response, negative = inhibition, most hits filed as inhibitors | 310,000 tested, 3.5% active; active = well fitted inhibition curve with a large enough effect; inconclusive = small, poorly fitted or top-dose-only effect, or another doubt; inactive = no such curve, though single readings can be large or run the other way;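 note: the enzyme is Sfp with the accession as filed and its product quenches rhodamine fluorescence; potency is the fitted concentration of half-maximal effect; 0% = enzyme reaction without inhibitor and -100% = no enzyme wells; top concentration of the series not given in the record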
#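 Buffer: 50 mM Hepes-Na pH 7.6, 10 mM MgCl2, 0.01% Nonidet P-40, 0.01% BSA. Enzyme 15 nM, pre-exposed to compound 15 min; substrates then added and fluorescence change tracked over 30 min.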
# TRPV1 PAM = human TRPV1 potentiation; Q8NER1; TRPV1-expressing cells, Fluo-8 calcium influx, capsaicin EC20 potentiation; host cell line not named in the record; control for the full effect not named in the record; potentiation, % at 8.33 µM; 320,000 tested, 0.02% active; active means potentiation above 80%; inconclusive means 30% to 80%; inactive means below 30%; note: 0% is about no effect
# Target sequence (Q8NER1 whole entry, looked up): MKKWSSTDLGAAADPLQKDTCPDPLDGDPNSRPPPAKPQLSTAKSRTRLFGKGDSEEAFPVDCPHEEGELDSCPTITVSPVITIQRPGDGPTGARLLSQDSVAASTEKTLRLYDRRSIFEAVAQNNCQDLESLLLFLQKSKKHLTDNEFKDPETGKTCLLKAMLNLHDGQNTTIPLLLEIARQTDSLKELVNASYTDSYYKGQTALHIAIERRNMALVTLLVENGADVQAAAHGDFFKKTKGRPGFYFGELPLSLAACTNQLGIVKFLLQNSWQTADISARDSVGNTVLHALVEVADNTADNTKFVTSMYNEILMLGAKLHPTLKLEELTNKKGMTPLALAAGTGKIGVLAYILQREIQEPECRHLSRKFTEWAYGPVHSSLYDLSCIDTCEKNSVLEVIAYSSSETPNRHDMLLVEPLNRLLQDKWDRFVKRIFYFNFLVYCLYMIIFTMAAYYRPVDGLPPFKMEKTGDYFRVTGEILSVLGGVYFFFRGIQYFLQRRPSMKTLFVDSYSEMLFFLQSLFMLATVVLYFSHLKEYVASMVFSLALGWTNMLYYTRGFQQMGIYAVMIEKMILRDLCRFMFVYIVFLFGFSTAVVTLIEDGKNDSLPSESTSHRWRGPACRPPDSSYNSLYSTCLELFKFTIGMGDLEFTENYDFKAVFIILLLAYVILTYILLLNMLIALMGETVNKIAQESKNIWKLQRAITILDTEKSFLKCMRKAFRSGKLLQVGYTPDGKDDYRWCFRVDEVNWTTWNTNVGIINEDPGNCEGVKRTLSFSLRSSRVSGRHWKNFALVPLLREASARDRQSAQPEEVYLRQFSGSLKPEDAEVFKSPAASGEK
#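 TRPV1-expressing cells were cultured overnight at 35.5C and loaded with Fluo-8 calcium dye for 40 to 90 min at room temperature. After a 10 s baseline, compound was added and calcium influx was read kinetically for 3 min (ex 480/em 520 nm).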
# The depositor's hits bear a star; ? = inconclusive; · = no result given; & = joins results of further samples; [ ] = dose if it differs, or a comment. An unsorted share of the library; about 4.4% have a hit in one of these screens.
SMILES,Menin-MLL FL inh,TRPML1 inh,TRPML1 ag,PINK1 expr mod,ClpP mod,Sfp inh,TRPV1 PAM
Cc1ccc2nc3n(c(=O)c2c1)-c1cc2ccccc2cc1C(=O)NC3Cc1ccc(O)cc1 (configuration not stated),·,-11.6,2.9,0.9%,-14.1%,·,·
COC(=O)c1c(NC(=O)CSc2ncn[nH]2)sc(C)c1C,·,37.1,1.7,-1.1%,-2.3%,·,-18.3
Cn1nc(C(=O)OCCN2C(=O)c3ccccc3C2=O)c2ccccc2c1=O,3.9,1.8,-0.1,0.2%,-1.9%,4.9%,-6.5
Cc1ccc(O)c(C(=O)c2cc(C#N)c(=O)n(-c3c(C)n(C)n(-c4ccccc4)c3=O)c2)c1,?,6.3,0.3,-0.2%[38.3 µM],2.6%,18.1%,-3.7
COc1ccc(C(=O)Nc2ccc(NC(=O)CSc3nnc(-c4ccncc4)n3C)cc2)cc1,-0.3,18.2,0.0,5.1%,·,9.8%,-1.8
Cc1ccc(S(=O)(=O)N2CCN(C(=O)CSc3nccn3C)CC2)cc1,0.7,-26.2,0.4,1.0%,·,20.1%,7.8
On1c(-c2ccccc2)nc2ncccc21,4.4,-15.8,1.1,3.4%,-2.7%,10.1%,3.5
CCc1nnc(NC(=O)C2CCCN2C(=O)Nc2ccccc2OC)s1 (configuration not stated),-4.3,-11.1,-0.3,0.6%,0.1%,-4.9%,-42.3
O=c1[nH]cc(S(=O)(=O)c2ccccc2)[nH]1,-0.4,-0.3,0.9,-0.2%,·,14.9%,3.0
Cc1ccc(S(=O)(=O)n2cc(C=O)c3ccccc32)cc1,0.8,·,·,?,-3.1%,-13.6%,9.3
O=C(COCc1cc(-c2ccc3c(c2)OCO3)on1)N1CCN(c2cccc(C(F)(F)F)c2)CC1,3.6,-2.0&38.4,2.8&2.6,-1.4%&-0.7%,-13.1%&-14.1%,-7.6%,0.7
CCCC(=O)C1=C(N2CCCCC2)CC(C)(C)C(C(=O)OC)C1=O (configuration not stated),-0.5,4.2,-0.7,-1.3%,1.0%,6.4%,3.4
Cc1ccc(CN2CCN(/N=C/c3cc(Br)ccc3F)CC2)cc1,0.7,5.5,0.6,7.7%,-0.7%,5.3%,-5.4
COC(=O)[C@H](CCSC)NC(=O)NCc1cccs1,1.7,47.0,-0.6,-1.1%[38.3 µM],-2.0%,6.3%,-9.4
CCOc1cc(N2CCOCC2)c(OCC)cc1NC(=O)C1=NN(c2cccc(C)c2)C(=O)CC1,0.8,-15.8,2.5,0.4%,-1.0%,-12.2%,-5.4
COc1ccc(C(=O)COC(=O)C(C(C)C)N2C(=O)C3C4C=CC(C4)C3C2=O)cc1 (configuration not stated),-0.2,-6.6,2.1,-2.1%,2.1%,9.2%,-6.5
Cc1ccc2nc(SCC(=O)N3CCC(C)CC3)nc(=O)n2c1,·,-3.8,-0.3,0.4%,-10.0%,·,-4.6
O=C(CNC(=O)c1cccc(OC(F)F)c1)OCc1cc(=O)n2cc(Br)ccc2n1,3.9,-4.3,1.4,6.4%,-18.3%,0.2%,5.9
NS(=O)(=O)c1ccc(N2CCN(S(=O)(=O)Cc3ccccc3)CC2)nc1,·,6.9,0.1,-1.1%,·,·,·
CCN(CC)S(=O)(=O)c1ccc(NC(=O)COC(=O)CNC(=O)C2CCCCC2)cc1,·,32.8,-0.3,3.3%,-0.9%,·,7.8
CC(=O)Nc1ccc(S(=O)(=O)Nc2cc(Cl)ccc2N2CCOCC2)cc1,·,1.9,1.5,3.6%,-0.2%,·,·
COc1ccccc1N1C(=O)C2CC=CC(C)C2C1=O (configuration not stated),5.0,22.8,-0.1,4.0%,3.16µM*,12.6%,-3.3
CSC(=O)CC(=O)NC(=O)c1ccccc1,1.7,8.7,-0.9,-1.4%,0.5%,15.5%,8.5
CC(C)=CCc1c(O)c(CC=C(C)C)c2occ(-c3ccc(O)cc3)c(=O)c2c1O,5.3,·,·,?,-1.7%,-6.3%,3.3
O=C(Nc1c(C(=O)N2CCOCC2)cnn1-c1ccccc1)c1ccccc1,1.3,-8.9,0.0,13.0%[38.3 µM],-1.6%,-6.7%,-17.6

# Later entries:
SMILES,Menin-MLL FL inh,TRPML1 inh,TRPML1 ag,PINK1 expr mod,ClpP mod,Sfp inh,TRPV1 PAM
O=C(CCN1C(=O)[C@@H]2Cc3ccccc3CN2C1=O)N[C@@H](Cc1ccccc1)C(=O)O,-0.9,·,·,-0.7%,0.0%,12.7%,8.8
CSc1ccc(/C=N/NC(=O)c2ccccc2Cl)cc1,2.0,0.4,-0.5,21.7%,-2.4%,18.8%,-6.2
COC(=O)Cc1csc(NC(=O)c2ccc3ncsc3c2)n1,·,-9.7,2.9,-1.2%,-3.4%,·,-4.1
Cc1nc(-c2cccc(-c3noc(C)n3)c2)no1,-0.4,-2.9,-0.2,3.5%[38.3 µM],-0.2%,0.7%,9.5
OC1CCCC1NCc1ccnc2cc(Cl)ccc12 (configuration not stated),·,8.3,-0.5,-1.8%,·,·,·
CS(=O)(=O)N1CCC2(CCCN(C(=O)Nc3cccc(C#N)c3)C2)CC1,1.9,·,·,-0.9%,·,35.9%[activator],·
COc1ccc(S(=O)(=O)N2CCCCCC2)cc1NS(=O)(=O)c1cc(C(=O)O)cc(C)c1C,·,-5.9,1.8,-0.7%,-2.6%,·,0.8
CC(=O)NN1C(=O)/C(=C\c2ccc(Br)o2)SC1=S,?,0.8,-0.6,3.5%,1.5%,56.2µM*,15.0
CC(=O)Nc1ccc(S(=O)(=O)N2CCC3(CC2)CC(=O)c2ccccc2O3)cc1,·,0.1,-0.3,1.4%,?,·,-16.8
COc1cc([N+](=O)[O-])cc([N+](=O)[O-])c1NC(=O)N1CCOCC1,-12.7,-4.4,0.3,-0.3%,·,?,28.4
COC(=O)c1c(NC(=O)CN2CCN(c3ccccc3OC)CC2)c2c(C)cccc2n1C,-2.0,·,·,·,·,-10.9%,26.8
COc1cc(S(=O)(=O)N2CCOCC2)cc(C(=O)OCC(=O)NC2CCCCC2)c1OC,·,16.2,-0.3,1.7%,-17.4%,·,-5.8
CC1=C(C(=O)OCc2ccc3c(c2)OCO3)C(c2ccccc2)NC(=O)N1 (configuration not stated),1.2,-3.4,0.9,·,-0.3%,-16.6%,-8.9
CC(=O)Nc1ccc(NC(=O)CSc2nc3ccccc3c(=O)n2CCCN2CCOCC2)cc1,·,-6.3,-0.5,0.0%,1.3%,·,·
COc1ccc(C(=O)c2oc3ccccc3c2NC(=O)COc2ccc(C)cc2)cc1,·,-4.6,-0.5,0.1%,-16.1%,·,·
N#CCCN(C(=O)COC(=O)c1cc2ccccc2oc1=O)c1ccccc1,·,-17.9,1.7,-0.8%,-15.5%,·,6.7
Cn1cc([N+](=O)[O-])c(C(=O)N/N=C/c2ccccc2)n1,0.3,9.7,-0.1,2.4%[38.3 µM],1.6%,8.9%,-5.4
Cn1c(N)c(C(=O)COC(=O)c2cc(S(=O)(=O)NCc3ccccc3)ccc2O)c(=O)n(C)c1=O,·,-15.4,1.3,2.0%,-3.9%,·,·
O=C(O)c1ccc(OCC(O)Cn2c3ccccc3c3ccccc32)cc1 (configuration not stated),2.0,8.1,0.1,-0.3%,·,21.0%,3.3
O=C(CCn1c(=O)c2sccc2n(Cc2cc(=O)n3ccccc3n2)c1=O)NCc1ccco1,0.0,8.9,0.6,5.0%[38.3 µM],28.2µM*,-1.0%,12.7
C=CCNC(=S)NCC1COc2ccccc2O1 (configuration not stated),9.9,-11.5,0.1,8.0%,-0.6%,12.8%,-19.6
COC(CNc1ccc([N+](=O)[O-])c(NCC(OC)OC)c1C#N)OC,-1.5,-20.5,2.0,3.2%,·,17.2%,-10.6
O=C(CSc1ncccn1)N1CCC(Cc2ccccc2)CC1,-0.3,17.0,0.3,0.6%,-6.5%,7.2%,-9.5
CCCOc1ccc(C(=O)NCC(C)(C)N2CCOCC2)cc1,1.2,6.9,0.7,0.4%,·,19.5%,2.5
Cc1cc(C)c(C)c(OCCN2CCOCC2)c1,-7.6,-1.3,-0.4,1.3%,-1.3%,-0.3%,8.0

# Additional compounds follow:
SMILES,Menin-MLL FL inh,TRPML1 inh,TRPML1 ag,PINK1 expr mod,ClpP mod,Sfp inh,TRPV1 PAM
O=C(NCCc1ccccc1)[C@@H]1CC=C[C@@H]2CCN(Cc3ccc(Cl)c(Cl)c3)C(=O)[C@@H]21,·,19.0,3.8&-0.3,16.1%,2.5%&-0.9%,·,·
CN1C(=O)CSC1=NC12CC3CC(CC(C3)C1)C2,-4.3,12.5,0.4,16.4%[38.3 µM],1.1%,-13.0%,-16.1
Cc1cc(C)nc(SCCC(=O)Nc2ccc(F)cc2)n1,0.3,-2.9,-0.2,1.5%,-2.2%,21.2%,10.0
CCN1C[C@@H]2[C@@H]3C(=O)N(C)C(=O)[C@@H]3[C@](Cc3ccccc3)(C(=O)OC)N2C1=NC1CCCCC1,·,16.3,0.9,0.3%,-0.7%,·,·
Cn1c(SC/C=C/c2ccccc2)nnc1-c1cnccn1,3.0,56.7,-0.8,0.6%,-2.1%,8.5%,2.7
NC(=O)C1CCN(c2nc(-c3ccccc3)nc3c2oc2ccccc23)CC1,-0.9,2.8,0.3,·,2.6%,-12.7%,-12.4
Cc1ccc(CNC2CCCCC2)s1,2.7,11.4,0.7,-1.2%,-1.8%,-13.8%,14.1
CCc1ccc(CNC(=O)c2ccc(CS(=O)(=O)Cc3cccc(C)c3)o2)cc1,·,-4.5,1.2,1.1%,2.0%,·,·
COc1ccccc1-n1nnnc1SCC(=O)Nc1ccccn1,3.6,1.9,-0.8,?,-0.7%,-0.4%,-1.5
CC(=O)Nc1ccc(Nc2ccc3nonc3c2[N+](=O)[O-])cc1,-1.0,-3.3,-0.2,2.3%,1.1%,3.6%,1.5
CCOc1ccc(NC(=O)Nc2cc3c(cc2N2CCCCC2)n(C)c(=O)n3C)cc1,·,-9.6,1.6,4.7%,?,·,·
COc1ccc(N2CCN(C(=O)Cn3c(=O)[nH]c4ccccc4c3=O)CC2)cc1,-1.9,·,·,·,·,3.5%,2.1
COc1cc2c(cc1OC)CN(C(=O)CCCN1C(=O)c3ccccc3C1=O)CC2,0.6,-15.4,-0.7,-2.9%,-2.2%,-2.2%,1.2
COc1cc(OC)cc(C(=O)NCCSCc2ccc(Cl)cc2)c1,1.0,-6.4,1.6,2.7%,·,8.5%,23.1
O=C(Nc1cccc(-n2cnnn2)c1)c1cccc(Cl)c1,4.4,-6.4,-0.5,0.8%,3.3%,17.6%,-10.5
